KCNQ2 pot: KCNQ2 (rat) channel potentiation; hit rate 0.54% among 310,000; B-score at 10 µM; CHO-K1 KCNQ2, FluxOR thallium flux fluorescence; stronger effect = higher value;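 active = fluorescence ratio B-score at least 3 SD of library B-scores, with initial fluorescence B-score within 3 SD, cut at about 5.3 in these data; same plate scores as AID 2156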;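 also: B-score of peak minus minimum over baseline fluorescence ratio after K+ and Tl+ stimulus; positive B-score means potentiation of KCNQ2 with more thallium influx and brighter signal; only the inactives scoring about 0 or higher are listed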
Target sequence (O88943 whole entry, looked up): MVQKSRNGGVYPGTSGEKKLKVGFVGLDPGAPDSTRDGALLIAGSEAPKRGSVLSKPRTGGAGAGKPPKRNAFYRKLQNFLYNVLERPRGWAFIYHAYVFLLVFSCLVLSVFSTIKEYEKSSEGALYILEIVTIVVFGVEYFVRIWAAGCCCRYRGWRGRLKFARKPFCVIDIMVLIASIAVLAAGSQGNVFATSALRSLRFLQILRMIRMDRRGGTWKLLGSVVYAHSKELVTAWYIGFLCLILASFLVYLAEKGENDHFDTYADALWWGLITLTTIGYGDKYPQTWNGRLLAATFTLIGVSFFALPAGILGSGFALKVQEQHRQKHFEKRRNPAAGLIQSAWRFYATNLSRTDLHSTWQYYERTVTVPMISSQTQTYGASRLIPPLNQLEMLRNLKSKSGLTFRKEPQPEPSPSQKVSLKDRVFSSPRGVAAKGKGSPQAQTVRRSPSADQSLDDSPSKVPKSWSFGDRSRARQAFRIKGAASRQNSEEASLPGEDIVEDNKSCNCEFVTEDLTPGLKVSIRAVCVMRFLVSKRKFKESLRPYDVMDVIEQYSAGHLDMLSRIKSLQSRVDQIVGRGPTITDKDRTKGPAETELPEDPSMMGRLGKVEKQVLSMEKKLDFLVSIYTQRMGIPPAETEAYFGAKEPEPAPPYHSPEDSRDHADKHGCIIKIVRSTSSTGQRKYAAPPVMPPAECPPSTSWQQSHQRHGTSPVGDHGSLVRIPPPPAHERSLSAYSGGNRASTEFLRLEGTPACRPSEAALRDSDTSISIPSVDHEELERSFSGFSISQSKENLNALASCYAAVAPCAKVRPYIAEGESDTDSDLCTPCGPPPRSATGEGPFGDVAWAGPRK
KCNQ2 pot baseline: second read-out of KCNQ2 pot, no call of its own (marks repeat the call); B-score; compound at 10 µM; measured here: initial fluorescence intensity artifact check;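 brightness before thallium and not channel activity; 0 = typical well and far values either way flag optical interference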
* hit, by the source's call. An excerpt. The share of hits here may be higher or lower than overall.

SMILES	KCNQ2 pot	KCNQ2 pot baseline
COc1cccc(C(=O)CSc2nnc(-c3cccs3)o2)c1	1.2	-1.4
COc1ccc(-c2csc(NC(=O)c3ccc(C(C)(C)C)cc3)c2C(=O)O)cc1	6.5*	-2.5*
Cc1coc2cc3oc(=O)c(CCC(=O)NCc4ccccn4)c(C)c3cc12	0.41	5
C=CCOc1nc(N2CCCC2)nc(N2CCCC2)n1	0.03	0.4
O=C(NC1CCN(c2ncccn2)CC1)c1c(F)cccc1F	1.7	0.68
COc1ccc(CC2(CO)CCN(Cc3cnn(-c4ccccc4OC)c3)CC2)cc1	1.8	-0.17
COc1ccc(CCNC(=O)NC2CCCCC2)cc1OC	1.6	0.07
O=C(N/N=C\c1ccc(Sc2ccccn2)o1)c1cccc(F)c1	1.1	0.05
CC(C)[C@H](NC(=O)N1CC(=O)Nc2ccccc21)C(=O)N[C@@H](Cc1c[nH]c2ccccc12)C(=O)O	1.2	1.2
Cc1ccccc1-n1c(C)nnc1SCC(=O)NNC(=O)c1ccccc1	1.1	-2.7
COc1ccc(C2=NN(C(C)=O)C(c3cccs3)C2)cc1OC (centres undefined)	1.4	-2.1
CCN(CC)S(=O)(=O)c1ccc(O)c(C(=O)OCC(=O)Nc2ccc(OC(F)(F)F)cc2)c1	0.62	0.52
O=C(O)c1ccccc1C(=O)NCc1ccccc1	0.08	-0.1
Cc1ccc2[nH]c(O)c(N=Nc3nc4ccccc4s3)c2c1	1.1	0.51
Cc1ccc2[nH]c(C(=O)NN=C3CCCCC3)c(-c3ccccc3)c2c1	0.41	-1.4
Cc1ccccc1-n1c(C)cc(/C=N/Nc2ccc([N+](=O)[O-])cn2)c1C	1.6	0
O=C(c1ccccc1Sc1c(Cl)cccc1[N+](=O)[O-])N1CCOCC1	0.5	1.7
COc1ccc(CCNC(=O)c2cc(=O)c3ccc(C)cc3o2)cc1OC	0.46	-2.5
OC(CNCC1(N2CCCCC2)CCCCC1)COc1ccc(Cl)cc1Cl (centres undefined)	2.5	0.03
COc1ccc(C(=O)NC(=S)NCc2ccco2)cc1OC	1.5	0.68
O=C(O)c1[nH]c2ccc(Cl)cc2c1CC(=O)N1CCN(c2ccccc2)CC1	1.8	-0.03
CCOc1ncccc1C(=O)Nc1ccc2c(c1)OCO2	0.14	0.64
CN(Cc1c(C(=O)N/N=C/c2ccc(O)cc2)nnn1-c1nonc1N)C1CCCCC1	1.9	-0.51
CCNc1nc(NCC)n2c(SCC(=O)Nc3ccccc3C(F)(F)F)nnc2n1	0.2	0.49
O=C(CCc1c[nH]c2ccccc12)N1CCN(c2ccc(F)cc2)CC1	0.51	-0.3
Cc1ccc(Nc2nnc(SCC(=O)NCCN3C(=O)CSC3=O)s2)cc1C	1.9	-2.2
COc1cc(CNc2ccc(N3CCOCC3)cc2)cc(Br)c1OC	2	-0.06
COCCN=C1OC(=O)N2C(=O)C3=C4[C@@H](C[C@H]5C(=O)N(c6ccccc6)C(=O)[C@H]5[C@H]4[C@@]12Cc1ccccc1)[C@H]1C(=O)N(c2ccccc2)C(=O)[C@H]1[C@H]3C	0.12	1
COc1ccc(C)cc1NC(=O)c1ccc(-c2ccc(C(C)=O)cc2)o1	0.04	-0.97
CCCNC(=O)COc1cccc(C(=O)NCc2ccccc2)c1	0.32	0.58
CC(C)C(=O)N(Cc1cc(=O)[nH]c2ccccc12)c1ccccc1	1.1	1.1
O=C(COc1ccc(F)cc1)Nc1ccc2c(c1)OCCO2	0.04	-0.68
CCCCN(C(=O)CNC(=O)c1ccco1)C(C(=O)NC1CCCCC1)c1cccnc1 (centres undefined)	1.2	-0.35
Cc1cc(C(=O)CN2C(=O)NC3(CCCCC3C)C2=O)c(C)n1Cc1cccs1 (centres undefined)	0.56	0.08
CCc1nnc(N/N=C/c2ccc(N3CCC(C)CC3)c([N+](=O)[O-])c2)n1N	0.69	-0.23
Cc1ccccc1OCC(=O)N(Cc1cccs1)C1CCS(=O)(=O)C1 (centres undefined)	0.31	0.38
O=C(Nc1ccc([N+](=O)[O-])cc1)c1ccccc1F	1.1	-0.23
CC(C)CN1C(=O)c2ccc(C(=O)Nc3ccncc3)cc2C1=O	0.4	-0.07
CC(C)C(C(=O)NC1CCCCC1)N(CC1CCCO1)C(=O)CNS(=O)(=O)c1ccc(F)cc1 (centres undefined)	0.7	-1.4
Cn1c(CNC(=O)c2ccc3c(c2)OCO3)nnc1SCC(=O)Nc1ccc(F)cc1	0.95	1.5
CCCC(=O)Nc1ccc(C(=O)Nc2ccc([N+](=O)[O-])cc2OC)cc1	3.1	-0.71
Cc1[nH]c2ccccc2c1SCCNC(=O)c1ccc(S(=O)(=O)N2CCCC2)cc1	0.23	-1.2
CC/C(=C\C(=O)c1ccncc1)Nc1ccc(Br)cc1	0.54	-0.67
CCN1CCN(S(=O)(=O)c2cc(OC)c(Cl)cc2OC)CC1	0.03	0.35
O=[N+]([O-])c1ccc(Cl)c(S(=O)(=O)Nc2cccc(-c3ccc(N4CCCC4)nn3)c2)c1	2.2	-0.67
O=C(Nc1cccc(F)c1)C1CC(=O)N(c2ccc(Cl)cc2)C1 (centres undefined)	0.87	-1.4
Nc1c2nc(-c3ccccc3Cl)[nH]c(=O)c2nc(=O)n1-c1ccccc1	0.1	0.31
COc1ccc(/C=N/N2CCN(C)CC2)cc1O	0.4	1.7
O=C(O)c1ccccc1C(=O)Nc1ccc(-n2nccc2C(F)(F)F)cc1	0.18	-0.93
O=C(NC1CC1)C1=C[C@@H](c2coc3ccccc3c2=O)C[C@@H](OCCCCO)O1	0.1	-0.36
N=c1n(CC(=O)c2ccc([N+](=O)[O-])cc2)c2ccccc2n1Cc1ccc(Cl)cc1	1.2	-0.01
Cc1ccc(C)c(N2CCN(C(=O)Nc3ccc4c(c3)N(C)C(=O)CS4)CC2)c1	0.05	0.1
O=C1OC(c2ccccc2)=N/C1=C\C=C\c1ccccc1[N+](=O)[O-]	1.2	0.09
O=C(NCc1cccnc1)c1ccc(COc2ccc3c(c2)CCC3)o1	3.2	-0.24
COc1ccc(C(=O)c2coc3ccc(O)c(CN4CCCC4)c23)cc1	0.18	-0.14
CCOC(=O)c1cc2c(=O)c3cc(C)ccc3oc2nc1C	1.5	0.04
CCCCc1nnc(NC(=O)C2CC(=O)N(c3ccc4c(c3)OCCO4)C2)s1 (centres undefined)	0.38	-1.4
CCN(CC)c1ccc(NC(=O)CSc2nnc3nc(C)cc(C)n23)cc1	1.1	0.69
CCOC(=O)C1=C(CS(=O)(=O)c2ccc(C)c(C)c2)NC(=O)NC1c1ccc(O)cc1 (centres undefined)	0.04	-0.11
COC(=O)Cn1cnc2c(oc3ccccc32)c1=O	2	-1.4

Remaining list, next part
SMILES	KCNQ2 pot	KCNQ2 pot baseline
Cc1ccc(S(=O)(=O)Nc2cc(-c3ccccc3)nn2C)cc1Cl	0.03	-0.39
CC1CCCN(CCOCCSc2ccccc2)C1 (centres undefined)	0.84	-0.97
O=C(NCCc1cccs1)c1ccc(CS(=O)Cc2ccc(Cl)cc2)o1 (centres undefined)	0.86	-0.01
Cc1ccc(NC(=O)C2CC(=O)Nc3ncnn32)c(C)c1 (centres undefined)	0.04	0.24
C/C(=N\NC(=O)C(N)=O)c1ccc(Br)cc1	1	1.2
CCCCCn1c(Sc2ccccc2)nc2c1c(=O)[nH]c(=O)n2C	0.56	-0.2
Cc1ccc(-n2c(=S)[nH]c3c(oc4ccccc43)c2=O)cc1	0.28	-0.84
Cc1c2c(nc3ccccc13)CCC(C)C2 (centres undefined)	0.83	0.17
CCOC(=O)c1ccc(S(=O)(=O)NNS(=O)(=O)c2ccc(C)cc2)cc1	1.2	-0.05
CC(C)Cc1cc(C(=O)Nc2cc(Br)ccc2O)no1	0.12	0.89
COc1ccc(N/C=C/C(=O)c2ccc3c(c2)OCO3)cc1OC	0.18	-4.1
CCC1CCCCN1C(=S)NC(=O)c1cccs1 (centres undefined)	4.6	-1.5
COCCNc1nc2c(c(=O)n(Cc3cccc(Cl)c3)c(=O)n2C)n1C	0.58	-0.63
Cc1ccc(CNC(=O)Nc2ccc(F)cc2)n1C	1.2	-2.8
Cc1cc(OC(C)C(=O)N2CCN(c3ccc(F)cc3)CC2)c2c(C)c(C)c(=O)oc2c1 (centres undefined)	1.5	0.86
CCc1ccc(-n2c(SCC(=O)N3CCC(C(=O)O)CC3)nnc2-c2ccncc2)cc1	0.05	0.93
CC(=O)NC(=O)COC(=O)/C=C/c1c(C)nn(Cc2c(Cl)cccc2Cl)c1Cl	0.07	0.43
Cc1ccc(C(=O)Nc2ncccc2O)cc1S(=O)(=O)N1CCCCC1	2.1	-0.33
CCn1c(CN2CCN(CCO)CC2)nc2ccccc21	1.2	1.5
CC(C)CCOc1cccc(OCC(=O)NC2CCS(=O)(=O)C2)c1 (centres undefined)	1.9	-0.42

Part of the list above, with values ahead of the structure:
KCNQ2 pot | KCNQ2 pot baseline | SMILES
2.1 | -0.33 | Cc1ccc(C(=O)Nc2ncccc2O)cc1S(=O)(=O)N1CCCCC1
1.2 | 1.5 | CCn1c(CN2CCN(CCO)CC2)nc2ccccc21

More structures
SMILES	KCNQ2 pot	KCNQ2 pot baseline
CCOC(=O)C1(CCOc2ccccc2)CCN(Cc2ccc(OC)cc2)CC1	0.52	0.04
CCn1c(Oc2ccc(F)cc2)nc2c1c(=O)n(C)c(=O)n2C	2.3	0.57
O=C(NC(NC(=O)c1ccccc1)c1ccccc1)c1ccccc1	1	1.1
COc1ccc(N2CC(C(=O)Nc3nnc(SCC(=O)NC4CCCC4)s3)CC2=O)cc1 (centres undefined)	0.89	-0.01
CCN(CC)CC(=O)Nn1c(C)nc2c(ncn2-c2ccccc2)c1=O	0.63	-1.7
COc1cc(/C=N/NC(=O)C(=O)Nc2ccccn2)ccc1O	1.3	-2.2
Cc1c(Cl)c(C(=O)N2CCCc3ccccc32)nn1C	1.4	-1.2
CCSc1ccccc1C(=O)NCc1ccco1	2.3	-0.69
COc1cc(/C=N/NC(=O)C(=O)NCC2CCCO2)ccc1OCC(=O)N1CCOCC1 (centres undefined)	0.02	0.26
CN(CC(=O)Nc1ccc(N2CCOCC2)cc1)C(=O)CCc1cc(C(C)(C)C)c(O)c(C(C)(C)C)c1	0.67	-0.83
O=C(Nc1ccc2c(c1)oc1ccccc12)c1ccc2c(c1)OCO2	0.82	0.8
Cc1cc(NC(=O)c2cccc(S(=O)(=O)N3CCCCCC3)c2)no1	0.32	0.24
CCN(CC)S(=O)(=O)c1ccc2c(c1)c(=O)c(C(=O)N1CCc3ccccc3C1)cn2C	0.67	-1.1
O=C(NCc1ccccc1)C(Cc1ccccc1)NS(=O)(=O)c1cccc2nsnc12 (centres undefined)	2	-0.19
COc1ccc(C2CC(c3ccc([N+](=O)[O-])cc3)=NN2C(C)=O)cc1 (centres undefined)	0.02	-0.04
CC(=O)NC1(NC(C)=O)CCN(C)C(c2ccccc2)C1C (centres undefined)	1.4	0.72
COc1ccc(S(=O)(=O)Nc2ccc(OCC(=O)O)cc2)c2ccccc12	0.04	-0.72
CN(C(=O)c1cc(S(=O)(=O)N2CCCCC2)c[nH]1)C1CCCCC1	0.41	0.72
O=C(NNc1ccccn1)c1ccccc1CC[N+](=O)[O-]	0.03	0.01
COc1ccc(C2(c3ccc(OC)cc3)NC(=O)N(CC(=O)NC3CCCC3)C2=O)cc1	0.03	1.4

Seven entries from above, ordered by molecular weight, falling:
SMILES	KCNQ2 pot	KCNQ2 pot baseline
CN(CC(=O)Nc1ccc(N2CCOCC2)cc1)C(=O)CCc1cc(C(C)(C)C)c(O)c(C(C)(C)C)c1	0.67	-0.83
COc1ccc(N2CC(C(=O)Nc3nnc(SCC(=O)NC4CCCC4)s3)CC2=O)cc1 (centres undefined)	0.89	-0.01
CCN(CC)S(=O)(=O)c1ccc2c(c1)c(=O)c(C(=O)N1CCc3ccccc3C1)cn2C	0.67	-1.1
CN(C(=O)c1cc(S(=O)(=O)N2CCCCC2)c[nH]1)C1CCCCC1	0.41	0.72
O=C(Nc1ccc2c(c1)oc1ccccc12)c1ccc2c(c1)OCO2	0.82	0.8
O=C(NC(NC(=O)c1ccccc1)c1ccccc1)c1ccccc1	1	1.1
Cc1c(Cl)c(C(=O)N2CCCc3ccccc32)nn1C	1.4	-1.2

(listing goes on)
SMILES	KCNQ2 pot	KCNQ2 pot baseline
CCc1ccc(C(=O)COC(=O)CCc2nc3ccccc3c(=O)[nH]2)cc1	0.41	0.53
COc1ccc(C)cc1-n1nnnc1SCC(=O)Nc1cc(C)on1	0.21	-0.97
CCc1nnc(NC(=O)COc2ccc(N(C)S(=O)(=O)c3ccc(C)cc3)cc2)s1	0.57	-0.49
Cc1nc2ccccc2c(=O)n1NCc1cc(Br)cs1	0.5	-0.58
Cn1c2ccccc2c(=O)c2ccc(C#Cc3ccccn3)cc21	1	1.1
CN(C)c1ccc(NC(=O)CN2C(=O)c3ccccc3C2=O)cc1	1.3	0.64
CCCCOc1ccc(NC(=O)c2cc(F)c(F)cc2Cl)cc1	0.99	-1.1
CCOc1ccccc1CNC(=O)c1cc2occc2n1C	1.1	-0.62
COc1cc2c(cc1OC)C(C(=O)Nc1cc(C)c(OC)c(C)c1)CC(=O)N2 (centres undefined)	0.08	1.5
CCCOc1ccc(/C(CC)=N/NC(=O)C2(C)CC2(Br)Br)cc1 (centres undefined)	0.89	0.09
COc1cc(C(=O)Nc2cccc(-c3nc4cc(C)ccc4o3)c2)cc(OC)c1OC	0.9	0.73
CCOc1ccc(-n2cnc3sc4c(c3c2=O)CCCC4)cc1	0.05	0.29
COc1ccc(S(=O)(=O)NCC2CCCN(C(=O)C3CCCC3)C2)cc1 (centres undefined)	0.52	0.89

Source: PubChem BioAssay (Johns Hopkins Ion Channel Center)
